Screening data: PubChem, National Center for Advancing Translational Sciences (NCATS)
PINK1 modulator – changes PINK1 expression; Potency, µM (highest dose often 76.6 µM), without a hit: at the highest dose activation (PINK1 increase), actives largely listed as activators; PINK1 immunofluorescence, high-content cytometry, 24 h; actives 0.2% (n = 410,000); active = well fitted activation curve with a large enough effect; inconclusive = small, poorly fitted or top-dose-only effect; inactive = flat fitted curve, though single readings scatter; cell line not stated here;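 further: potency means the concentration at half of the fitted maximal effect; % of control where 0% means no effect; nearly all actives have a fitted effect of over 65% in size; a mitochondrial uncoupler was the plate control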
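Stable cell line treated 24 h with compounds at 5 concentrations (CCCP controls), then fixed and immunostained for PINK1 plus nuclear and cell stains; PINK1 immunofluorescence quantified by laser-scanning microplate cytometry.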
Six1-Eya2 blk – blocks human Six1 binding to Eya2; AID 651725; Q15475+O00167; actives 0.56% (n = 360,000); activity change, % (concentration not given with the values); AlphaScreen GST-Six1/His-Eya2 binding, biochemical; active compounds read low; control for the full effect not named in the record; in the data active = activity change below about -65%; inconclusive = about -30% to -65%; inactive = above about -30%; further: on the % scale 0 is the no-effect control and ±100 the full control effect
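GST-Six1 + His-Eya2 (5X stock: 250/500 nM); Tris pH 8.0, 300 mM NaCl, 0.05% BSA, 0.02% Tween 20; GSH donor/Ni acceptor beads; 1 h 37 °C dark; AlphaScreen readout.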
D2 ag – activates the human D2 dopamine receptor; activation, % (test concentration not listed); actives 0.084% (n = 360,000); DiscoveRx PathHunter D2 beta-arrestin, luminescence, 90 min; 100% = 57 uM dopamine signal; AID 624465; P14416; in the data active = activation above about 40%; inconclusive = about 15% to 40%; inactive = below about 15%; further: compound concentration not given in the record; the text of the record calls up to 30% inactive
Target sequence (P14416 whole entry, looked up): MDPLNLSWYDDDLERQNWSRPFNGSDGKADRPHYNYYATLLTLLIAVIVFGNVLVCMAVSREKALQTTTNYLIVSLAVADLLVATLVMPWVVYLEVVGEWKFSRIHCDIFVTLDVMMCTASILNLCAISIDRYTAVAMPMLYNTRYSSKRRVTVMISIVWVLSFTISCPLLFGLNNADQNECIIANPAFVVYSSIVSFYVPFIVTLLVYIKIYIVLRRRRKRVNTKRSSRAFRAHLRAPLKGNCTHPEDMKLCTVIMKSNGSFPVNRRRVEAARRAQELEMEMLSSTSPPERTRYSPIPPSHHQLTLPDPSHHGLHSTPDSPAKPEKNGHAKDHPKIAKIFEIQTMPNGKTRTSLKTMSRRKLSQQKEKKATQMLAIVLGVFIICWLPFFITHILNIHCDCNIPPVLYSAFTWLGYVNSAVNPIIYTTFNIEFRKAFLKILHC
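DiscoveRx PathHunter D2 beta-arrestin cells (2,100/well) attached overnight, then compound-stimulated 90 min at 37 C in HBSS/10 mM HEPES/0.1% Tween-20 buffer; beta-galactosidase complementation read by luminescence after 1 h at ambient temperature. Dopamine 57 uM final (EC100) as control.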
D2 PAM – positive allosteric modulators of human D2 dopamine receptor; potentiation, % (no concentration beside the values); P14416; DiscoveRx D2 beta-arrestin cells, luminescence, 90 min; 100% = 57 uM dopamine signal; actives 0.23% (n = 360,000); active = potentiation of 50% or more; inconclusive = 30% to 50%; inactive = 30% or less;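 further: compound concentration not given in the record; tested on top of an EC20 dose of dopamine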
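D2 cells co-treated with compound plus 50 nM dopamine (EC20) for 90 min at 37 deg C to detect potentiation. Beta-arrestin recruitment was read as enzyme-fragment luminescence after 1 h at ambient temperature. Full response was set by 57 uM dopamine.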
TRPML1 inh – inhibitors of human TRPML1 channel. Q9GZU1. actives 0.02% (n = 390,000). TRPML1-inducible cells, Ca2+ dye fluorescence, FDSS; active compounds read low; inhibition of EC80 agonist-evoked calcium signal. activity change, negative = inhibition, % (concentration not given with the values). AID 624415; in the data active means activity change below about -50%; inconclusive means about -30% to -50%; inactive means above about -30%;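 further: stimulus is agonist 54-4 at its EC80 concentration; on the % scale 0 is the no-effect control and ±100 the full control effect; the text of the record puts the active cut at -80%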
Target sequence (Q9GZU1 whole entry, looked up): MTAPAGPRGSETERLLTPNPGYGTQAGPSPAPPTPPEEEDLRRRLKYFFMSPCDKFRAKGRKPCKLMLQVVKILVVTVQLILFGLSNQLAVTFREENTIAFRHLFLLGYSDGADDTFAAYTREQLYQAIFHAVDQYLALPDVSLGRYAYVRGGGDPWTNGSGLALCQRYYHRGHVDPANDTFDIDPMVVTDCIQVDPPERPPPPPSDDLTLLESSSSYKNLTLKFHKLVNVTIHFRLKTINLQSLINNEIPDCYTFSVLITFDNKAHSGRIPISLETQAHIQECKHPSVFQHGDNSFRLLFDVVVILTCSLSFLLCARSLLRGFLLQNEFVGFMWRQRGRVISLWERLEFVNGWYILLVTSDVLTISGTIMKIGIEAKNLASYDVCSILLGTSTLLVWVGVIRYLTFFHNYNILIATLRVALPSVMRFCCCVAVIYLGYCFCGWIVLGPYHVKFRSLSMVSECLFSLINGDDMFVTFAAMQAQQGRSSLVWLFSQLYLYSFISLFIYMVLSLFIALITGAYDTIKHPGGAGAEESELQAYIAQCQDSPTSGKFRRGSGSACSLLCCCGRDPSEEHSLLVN
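Tet-induced TRPML1-DL cells loaded with Ca8 no-wash calcium dye were read kinetically on FDSS. Compound addition was followed by EC80 agonist 54-4 (4 uM final); inhibition was read over 110 s.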
TRPML1 agonist – activates the human TRPML1 channel; Q9GZU1; TRPML1-expressing cells, Ca2+ dye fluorescence, FDSS; host cell line not named in the record; reference of the full effect not given here; activation, % (concentration not given with the values); actives 0.12% (n = 410,000); in the data active = activation above about 50%; inconclusive = about 30% to 50%; inactive = below about 30%; further: 0% is about no effect; the text of the record puts the active cut at 80%
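Calcium fluorescence on an FDSS kinetic reader gave the read-out. Tet-induced TRPML1-DL cells were plated overnight, dye-loaded (Ca8 with quencher, 45-90 min, room temperature, dark), then read 110 s after compound addition, and again 110 s after 4uM final 54-4 (EC80).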
* = called active by the depositor; u = inconclusive; x = not tested or not shown; & = joins results of further samples; [ ] = dose if it differs, or a comment.

SMILES	PINK1 modulator	Six1-Eya2 blk	D2 ag	D2 PAM	TRPML1 inh	TRPML1 agonist
O=C(NC1CCCCC1)c1ccccc1NC(=S)NC(=O)C1CC1	4.1%	6	-2.3	-19	u	1.4
CCC(C(=O)Nc1ccc(S(=O)(=O)Nc2ncccn2)cc1)c1ccccc1 (configuration not stated)	0.0%	-3	-5.0	-1	-11	-0.5
CCOC(=O)C(NCc1ccco1)(NC(=O)c1ccc(OC)cc1)C(F)(F)F (configuration not stated)	1.8%	-3	-2.2	-10	-3	-1.1
Oc1ccc(C(=Nc2ccccc2)c2ccccc2)c(O)c1	5.2%	-1	-1.9	1	4	-0.7
CCN(CC)CCCNC(=O)c1cn(-c2cccc(OC)c2)c(=O)c2ccccc12	0.6%	0	0.7	-10	53	-0.8
COc1cc(C(=O)N2CCC(C(N)=O)CC2)ccc1OCc1c(C)noc1C	1.1%	9	-1.8	-4	13	-0.5
COc1ccc(OC)c(CC(NC(C)=O)C(=O)NC2CCN(S(=O)(=O)c3ccc(NC(C)=O)cc3)CC2)c1 (configuration not stated)	2.4%	2	0.0	-9	11	0.7
N#Cc1nc(-c2ccc(F)cc2)oc1NCc1cccc2c1OCO2	2.3%	16	-3.1	-4	-5	-1.3
CC(C)(C)N1C(=O)[C@H]2[C@@H](c3ccc(Br)cc3)N3C(=O)N(c4cccc(F)c4)C(=O)[C@@]3(Cc3ccccc3)[C@H]2C1=O	2.1%	-5	-2.9	-11	15	0.8
CC1Sc2ccc(S(=O)(=O)CCC(=O)NC(C)c3ccccc3)cc2NC1=O (configuration not stated)	0.6%	4	-0.9	0	1	-0.8
COc1ccc(S(=O)(=O)c2c(C(=O)c3ccc(C)c(C)c3)cnc3ccc(C)cc23)cc1	2.0%	x	x	x	-2	-0.5
Cc1nc2c(sc3nc(N4CCOCC4)c4c(c32)CC(C)(C)OC4)c(-c2ccccc2)c1C(=O)O	-0.3%	1	-1.3	-5	0	1.0
COc1ccc2[nH]c3c(c2c1)CCN(C(=O)CCC1CCCC1)C3c1ccc(F)cc1 (configuration not stated)	4.8%	x	x	x	25	-0.8
COC(=O)c1c(C)sc(-c2c(-c3cccc(Cl)c3)[nH]c3c2c(=O)[nH]c(=O)n3C)c1O	4.1%	x	x	x	-3	29
CCC12CN3CC(CC)(CN(C1)C3c1cc(Br)ccc1OC)C2=O (configuration not stated)	-0.3%	x	x	x	-6	-0.3
COc1ccc(C(=O)N2CCN(C(=O)C3COc4ccccc4O3)CC2)cc1 (configuration not stated)	-0.9%	4	-3.2	-5	14	1.2
CCOCCOC(=O)c1ccc(NC(=O)c2cc(OC)c(OC)c(OC)c2Br)cc1	1.3%	12	-2.3	6	4	0.8
C=C1CCN([C@@H](CC(C)C)C(=O)NCc2cc(OC)c(OC)c(OC)c2)S(=O)(=O)c2ccccc21	0.9%	-28	-3.0	-8	-14	-0.1
COc1ccccc1NC(=O)CN1CCN(CC(=O)Nc2ccccc2Cl)CC1	-0.4%	2	-3.4	-9	9	-1.6
COc1ccc(OC)c(N/C(=N/c2nc(C)cc(C)n2)NC(C)=O)c1	5.5%	-1	-4.9	-1	12	1.8
COc1ccc(CC(=O)O/N=C(\N)c2ccncc2)cc1OC	0.8%	-3	4.2	3	-6	0.1
CC1CCCN(CC(O)COc2ccc(S(=O)(=O)N3CCCC3)cc2[N+](=O)[O-])C1 (configuration not stated)	0.3%	-1	-3.8	-5	-26	0.0
O=C(NCc1cccnc1)/C(=C/c1ccco1)NC(=O)c1ccccc1	1.3%	1	-2.3	3	-7	0.3
Cc1ccc(Nc2c(-c3ccc(N4CCOCC4)cc3)nc3ncccn23)cc1C	-0.1%&-0.1%	0	-1.2	-2	-19&5	1.5&1.0
CCc1c(C#N)c(SCCC(=O)Nc2ccc(F)cc2)nc2c1C(=O)CC(C)(C)C2	14%	0	-1.8	-4	9	0.0
COc1cc(S(=O)(=O)NC2CCCCC2)ccc1Cl	5.4%	-5	0.4	-9	-11	1.2
CCOC(=O)c1c(/N=C/C2C(=O)CCCC2=O)sc(C)c1C	3.2%	-2	-4.4	7	-4	0.2
COC(=O)c1cc(-c2c[nH]c3ccccc23)n[nH]1	-3.0%	2	1.6	-2	-15	0.4
COC(=O)[C@@H]1CCCN1C(=O)c1cc(COc2cccc3cccnc23)on1	0.9%	-4	-6.0	-3	0	0.4
CC(C)(C)S(=O)N1Cc2cc(CO)ccc2[C@H]1CCO (some centres not stated)	2.0%	14	-7.6	5	-1	-0.6
Cn1cnc([N+](=O)[O-])c1S(=O)(=O)c1cccc(Cl)c1	4.2%	2	-5.2	-11	-18	0.5
CCC(=O)c1ccc(OCC(=O)NCCCN2CCOCC2)cc1	2.5%	6	-4.8	3	-14	0.6
Cc1ccsc1/C=C1\CCC(C2CCCC2)C1=O (configuration not stated)	5.9%	27	-1.5	11	-6	0.5
O=C(c1ccc[nH]c1=S)N1CCN(S(=O)(=O)c2ccc(Br)cc2Cl)CC1	1.0%	-5	-1.4	-10	10	-0.5
COc1ccc(C(C)NC(=O)c2ccccc2)cc1 (configuration not stated)	x	-4	-0.1	12	8	0.2
Cc1ccc2[nH]c(=S)cc(C)c2c1	-1.7%	-8	-3.7	8	-17	-0.6
CC(C(=O)Nc1cccc(C#N)c1)N(C)CCOc1ccccc1 (configuration not stated)	1.3%	6	1.7	-15	6	0.0
O=C(CNC(=O)c1ccccc1Br)N/N=C/c1cc(Br)ccc1O	2.4%	u	-1.6	-1	6	2.4
O=C(O)CN1C(=O)/C(=C/c2ccc(N3CCCCC3)o2)SC1=S	1.1%	u	0.8	-5	0	0.4
Cc1ccc(-c2nc(S(=O)(=O)c3ccc(F)cc3)c(SCC(=O)NCC3CCCO3)o2)cc1 (configuration not stated)	1.9%	-1	0.2	-3	-26	0.1

Given field by field: entries from further up.
Cc1ccc(Nc2c(-c3ccc(N4CCOCC4)cc3)nc3ncccn23)cc1C
  PINK1 modulator = -0.1%&-0.1%; Six1-Eya2 blk = 0; D2 ag = -1.2; D2 PAM = -2; TRPML1 inh = -19&5; TRPML1 agonist = 1.5&1.0
CCc1c(C#N)c(SCCC(=O)Nc2ccc(F)cc2)nc2c1C(=O)CC(C)(C)C2
  PINK1 modulator = 14%; Six1-Eya2 blk = 0; D2 ag = -1.8; D2 PAM = -4; TRPML1 inh = 9; TRPML1 agonist = 0.0

Individual results from the results shown:
COc1ccc(C(C)NC(=O)c2ccccc2)cc1 (configuration not stated) in D2 PAM = 12
COC(=O)[C@@H]1CCCN1C(=O)c1cc(COc2cccc3cccnc23)on1 in D2 PAM = -3

The list continues:
SMILES	PINK1 modulator	Six1-Eya2 blk	D2 ag	D2 PAM	TRPML1 inh	TRPML1 agonist
Cc1cc(C)cc(NC(=O)C2(c3cccs3)CCOCC2)c1	0.6%&4.1%	2	2.1	3	1&-15	2.8&-0.2
CN(CC(=O)Nc1ccc(F)cc1)C(=O)COC(=O)C1=COCCO1	2.9%	1	-1.4	6	-6	0.2
COc1ccc(NC(=S)NC(=O)/C=C/c2ccco2)c(OC)c1	9.4%	-21	2.7	-1	-9	0.6
O=C(COc1ccccc1-c1ccccc1)c1ccccc1	6.0%	6	-3.6	-21	-6	2.2
NC(=O)C(c1ccccn1)c1ncc(C(F)(F)F)cc1Cl (configuration not stated)	-0.6%	1	2.2	-3	-3	0.7
O=C(COC(=O)COc1ccc(Cl)cc1)Nc1ccc(F)c([N+](=O)[O-])c1	1.0%	-1	-2.7	-3	3	-0.1
CC(NC(=O)Cn1cccc1)c1ccccc1 (configuration not stated)	2.2%	-8	-1.5	-7	15	0.1
Cc1c(NC(=O)c2cccc(NC(=O)C(C)Oc3ccccc3)c2)c(=O)n(-c2ccccc2)n1C (configuration not stated)	-0.2%	-2	0.3	1	9	-0.2
O=Cc1cn(-c2ccccc2)nc1-c1cc2cc(O)ccc2oc1=O	7.1%[38.3 µM]	-17	0.5	-3	-12	2.0
O=C(COc1ccccc1Cl)Nc1ccc(Cl)c(-c2nc3ccccc3o2)c1	-0.8%	x	x	x	5	1.7
CC1(C)CC(=O)C(C=Nc2cccnc2)=C(O)C1	-3.5%[38.3 µM]	0	-0.1	-9	-3	-0.4
Cc1ccccc1OCC(=O)Nc1ccc2nc(SCC(=O)N3CCOCC3)sc2c1	2.2%	x	x	x	8	4.3
CC(=O)Nc1cc2c(cc1[N+](=O)[O-])-c1ccc(F)cc1C2	25%	-9	u	27	16	0.9
COc1ccc(-n2nnc3c(SCC(=O)NCC4CCCO4)ncnc32)cc1 (configuration not stated)	2.7%	-11	-2.9	-20	35	-1.9
COc1cc(NC(=O)c2ccccc2C)c(OC)cc1NC(=O)CN1CCOCC1	0.1%	-3	-2.9	-1	15	-0.6
O=C(Nc1ccccc1)Nc1scc2c1c(=O)oc1ccccc12	3.2%	-1	-2.5	-3	-1	1.3
COc1ccccc1CCNC(=O)C(=O)Nc1cc2c3c(c1)CC(=O)N3CCC2	-0.9%	6	-1.2	-1	69	-0.1
O=C(NCc1ccccc1)c1ccc2c(c1)CCN2S(=O)(=O)c1ccc(Cl)cc1	-1.1%	x	x	x	17	-0.1
CC(C)(C)n1nc2c(c1NC(=O)c1ccc(S(=O)(=O)N3CCCC3)cc1)CS(=O)C2 (configuration not stated)	-1.9%	-4	-3.0	-3	15	1.8
CC(=O)c1ccc(NC(=O)CN2CCN(c3ccccc3)CC2)cc1	3.9%	2	u	12	-28	-0.2

By substructure, the entries above with a CF3 group.
SMILES	PINK1 modulator	Six1-Eya2 blk	D2 ag	D2 PAM	TRPML1 inh	TRPML1 agonist
CCOC(=O)C(NCc1ccco1)(NC(=O)c1ccc(OC)cc1)C(F)(F)F (configuration not stated)	1.8%	-3	-2.2	-10	-3	-1.1
NC(=O)C(c1ccccn1)c1ncc(C(F)(F)F)cc1Cl (configuration not stated)	-0.6%	1	2.2	-3	-3	0.7

Following part
SMILES	PINK1 modulator	Six1-Eya2 blk	D2 ag	D2 PAM	TRPML1 inh	TRPML1 agonist
Cc1cccc(OCC(=O)Nc2nnc(S(=O)(=O)N3CCCCC3)s2)c1	0.7%	-2	-8.4	-2	-7	0.1
O=S(=O)(c1ccc(Cl)c(NC(=S)N/N=C/c2ccc(O)cc2)c1)N1CCOCC1	11%	u	5.9	4	-5	-0.7
CC1CCCN(C(=O)COC(=O)Cc2ccc(Cl)cc2)C1 (configuration not stated)	-1.2%	-4	-3.0	-6	-16	-0.3
COc1ccc(NC(=O)c2ccc(C)o2)c([N+](=O)[O-])c1	1.9%	4	3.6	7	33	0.9
Cc1ccc(NC(=O)CS(=O)(=O)c2cn(C)c3ccccc23)c(C)c1	-0.6%	7	-0.8	-5	-27	-0.6
